LANA-H2B inh: blockers of LANA interaction with H2A/H2B – biochemical, FP readout, HTS, primary screen; Protein LANA1 (Human herpesvirus 8 type P (isolate GK18)), Q9QR71; cell-free LANA-H2A/H2B peptide, fluorescence polarization; inhibition, % (test concentration not listed); actives 0.6% (n = 320,000); AID 2629, 2010; in the data active = inhibition mostly above about 10%, no sharp cut-off; inactive = mostly below about 6.7%;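 note: stock transfer was 7.5 nL into about 10 µL; 0% = median of vehicle wells and 100% = median of positive control wells; one replicate is shown; the record names a cut of 25% in any replicate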
FGF22 binding: binders of human FGF22 protein, primary screen, FGF22 synaptogenesis inhibitor project, biophysical, thermal shift, single point. recombinant FGF22 thermal shift, SYPRO orange fluorescence; percent of sucrose octasulfate shift, DMSO zero. calls only at 9.99 µM. actives 1.5% (n = 340,000);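 active = melting point raised past a set limit in the mean and every replicate; three in four hits are not shown here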
Target sequence (Q9HCT0 whole entry, looked up): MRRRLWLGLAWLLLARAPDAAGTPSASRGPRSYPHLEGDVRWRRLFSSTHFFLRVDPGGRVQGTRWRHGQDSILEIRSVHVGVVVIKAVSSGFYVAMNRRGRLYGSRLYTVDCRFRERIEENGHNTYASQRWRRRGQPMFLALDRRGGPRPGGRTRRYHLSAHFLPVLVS
ALR inh: inhibitors of human ALR sulfhydryl oxidase, primary screen, biochemical, H2O2 detection, HRP-luminol luminescence, single point; purified ALR, DTT oxidation; inhibition, % (no concentration beside the values); actives 3.8% (n = 290,000); AID 485317, 2010;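 active = mean and each replicate at 75% or more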;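 note: stock transfer was 7.5 nL into about 7.5 µL; 0% = neutral wells and 100% = wells with inactivated enzyme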
Beta2AR agonist: beta2AR agonists driving receptor internalization, primary screen, cell-based, FAP fluorogen, flow cytometry | Beta-2 adrenergic receptor (Homo sapiens), P07550 | Am2.2-beta2AR cells; reference of the scale not given here | response, % (concentration not given with the values) | actives 0.43% (n = 340,000);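 active = response above a set limit, near 3 SD of response in nonfluorescent compounds, cut at about 42% in these data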;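 note: stock transfer was 100 nL into about 11 µL; a reference agonist was the positive control; negative values mostly stem from fluorescent compounds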
HNF4A DNA FP: change in binding of human HNF4A to DNA, primary screen, biochemical, fluorescence polarization, FITC-DNA | Hepatocyte nuclear factor 4-alpha (Homo sapiens), P41235 | 1 h | activity change, % at 10 µM | actives 0.3% (n = 360,000); in the data active = activity change above about 30%, passing the limit was not always enough;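 note: controls were the assay level and a saturating level of protein; the project sought stronger binding though the title names inhibitors; some compounds called inactive have numbers as strong as hits; positive values seem to mean higher polarization but the record does not say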
Target sequence (P41235 whole entry, looked up): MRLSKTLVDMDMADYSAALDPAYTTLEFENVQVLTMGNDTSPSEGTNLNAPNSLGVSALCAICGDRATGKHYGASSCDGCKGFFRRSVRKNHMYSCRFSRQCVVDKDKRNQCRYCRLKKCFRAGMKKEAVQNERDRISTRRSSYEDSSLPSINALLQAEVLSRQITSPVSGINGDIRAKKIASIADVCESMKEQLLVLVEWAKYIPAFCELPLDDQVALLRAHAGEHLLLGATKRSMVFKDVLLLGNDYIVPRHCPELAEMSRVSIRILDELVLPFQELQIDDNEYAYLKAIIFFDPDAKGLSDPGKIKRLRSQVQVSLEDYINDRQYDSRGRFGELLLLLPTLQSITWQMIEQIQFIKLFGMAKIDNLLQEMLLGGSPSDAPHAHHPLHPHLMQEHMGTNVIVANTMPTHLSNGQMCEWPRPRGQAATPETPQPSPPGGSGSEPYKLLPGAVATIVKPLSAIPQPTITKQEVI
E coli growth: E. coli growth inhibition, primary screen, OD600. Escherichia coli growth, 23 h; stronger effect = lower value. OD600 absorbance (concentration not given with the values). actives 0.21% (n = 330,000);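 active = OD600 absorbance below the run mean of sample wells minus 3.6 SD, in any replicate, cut at about 0.56 in these data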;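 note: stock transfer was 300 nL into about 60 µL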
UCH37 DUB inh: inhibitors of human UCH37 deubiquitinase, primary screen, biochemical, Ub-AMC cleavage, fluorescence; Ubiquitin carboxyl-terminal hydrolase isozyme L5 (Homo sapiens), Q9Y5K5; purified proteasome/UCH37; inhibition, % (concentration not given with the values); actives 0.33% (n = 330,000);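 active = mean of two replicates above 20%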;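 note: 0% = compound-free wells with enzyme and 100% = wells lacking proteasome; stock transfer was 100 nL into about 20 µL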
Target sequence (Q9Y5K5 whole entry, looked up): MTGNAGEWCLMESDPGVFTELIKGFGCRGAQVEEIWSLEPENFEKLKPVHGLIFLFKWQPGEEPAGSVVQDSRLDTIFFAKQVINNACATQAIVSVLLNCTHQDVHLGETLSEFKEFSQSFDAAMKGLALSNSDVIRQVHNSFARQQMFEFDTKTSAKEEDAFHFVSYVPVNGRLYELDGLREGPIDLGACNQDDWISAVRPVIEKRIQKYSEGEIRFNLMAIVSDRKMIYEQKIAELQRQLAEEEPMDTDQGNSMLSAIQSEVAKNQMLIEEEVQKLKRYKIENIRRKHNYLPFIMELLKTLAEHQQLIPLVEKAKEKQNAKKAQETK
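Material: human UCH37 enzyme supplied as purified proteasome complex / Amount: 0.15 nM proteasome as dispensed / Buffer or medium: pH 7.4 Tris-HCl (50 mM) with ovalbumin, ATP-MgCl2, DTT / Times: preincubation 30 min, reaction 25 min, room temperature / Technique: AMC fluorescence from Ub-AMC cleavage, excitation 355 nm, emission 460 nm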
* = called active by the depositor; i = inactive; nt = not tested or not shown; & = joins results of further samples.

Order of values – LANA-H2B inh, FGF22 binding, ALR inh, Beta2AR agonist, HNF4A DNA FP, E coli growth, UCH37 DUB inh
CCCCSCCCNC(=O)c1cn(C)c2ccc(S(=O)(=O)N3CCCC3)cc2c1=O
  -3.5, i, 0.2, -9.4, 0.1, 0.71, 4.8
Cc1ccc(C)c(S(=O)(=O)NCc2ccc(C(=O)NCc3ccco3)cc2)c1
  -0.6, nt, -5.4, -1.7, 3.8, 0.73, 0.6
CNC(=S)N(Cc1ccco1)Cc1cc2cc(OC)c(OC)cc2[nH]c1=O
  -7.2, i, 2.8, 1.9, 3.0, 0.675, -35.7
CCOc1ccccc1C(=O)OCC(=O)NCC1CCCO1 (stereo unspecified)
  3.6, i, 1.1, 16.7, 1.0, 0.707, 0.9
Cc1nn(C)cc1CNC(=O)c1cnn2c1NC(c1ccc(Br)cc1)CC2C(F)(F)F (stereo unspecified)
  -5.4, nt, -3.5, -0.5, 0.6, 0.667, 1.5
Cn1c(=O)c2c(ncn2CC(O)CO)n(C)c1=O (stereo unspecified)
  0.7&-6.1, i, -5.6, -2.1, -1.6, 0.719, -1.4
Cc1cnnn1-c1cccc([N+](=O)[O-])c1
  0.7, i, -2.1, -1.6, 1.2, 0.672, 3.0
CN(CC(=O)Nc1ccc(C#N)cc1)Cc1ccc(Cl)c(Cl)c1
  4.3, nt, -4.7, 9.1, 4.1, 0.706, 1.5
COc1cccc(C(=O)Nc2cc(=O)n(C)c(=O)n2C)c1OC
  -0.2, i, -2.5, 0.3, -2.6, 0.732, 3.5
Cc1nc(=O)c(-c2ccccc2)c(C)n1-c1ccc(C(=O)O)cc1
  0.8, nt, -3.9, -4.0, 2.4, 0.735, 5.4
CC(=O)c1ccc(OCCCC(=O)NC2CCC(C)CC2)cc1 (stereo unspecified)
  0.8, i, -0.5, -1.7, -3.3, 0.672, 3.8
O=C(Nc1ccccc1Br)c1ccc(OC(=S)N2CCOCC2)cc1
  -5.1, i, -2.6, -3.6, 3.1, 0.692, 2.8
COc1cccc(NC(=O)CSc2nnc(-c3cc(C)n(-c4ccccc4)c3C)o2)c1
  -2.1, nt, 10.3, -5.0, 2.5, 0.691, 1.7
CC(=O)c1ccc(S(=O)(=O)N2CCN(C(=O)CCC3CCCC3)CC2)cc1
  nt, i, nt, -4.2, 0.4, 0.643, 1.6
COc1ccc(Cl)cc1NC(=O)CSc1nnc(C2CC2)n1C
  0.9, i, 0.4, -1.3, 3.1, 0.664, 0.6
Cn1cc(C2NC(=O)c3ccccc3N2)c2ccccc21 (stereo unspecified)
  nt, i, nt, 21.1, 0.6, nt, nt
Cc1oc(C(C)(C)C)cc1C(=O)N1CCCC1C(=O)O (stereo unspecified)
  0.9, nt, 1.9, 8.9, -1.8, 0.715, 2.7
O=C(NCCn1ccc2ccccc21)c1ccc(S(=O)(=O)N2CCOCC2)cc1
  -1.2, i, -15.6, 4.0, 0.9, 0.761, 5.9
O=C(Cn1cc2c(n1)CCCCC2)N1CCc2ccccc21
  -4.5, i, -4.4, -13.9, 3.3, 0.759, 1.0
NC(=O)c1nsc(C(=O)N(c2cccc(O)c2)C(C(=O)NC2CCCC2)c2ccc(Cl)cc2)c1N (stereo unspecified)
  -3.3, i, -15.6, 6.9, -1.7, 0.653, -5.3
Cc1cccc(NC(=O)C2CCN(C(=O)[C@@H]3Cc4ccccc4CN3)CC2)c1
  1.6, i, -2.6, -0.3, -1.1, 0.708, 4.1
Cc1cccc(NS(=O)(=O)c2cccc(C(=O)NCC(c3ccco3)N3CCCCC3)c2)c1 (stereo unspecified)
  6.7, i, -2.6, 3.1, 1.6, 0.686, 0.9
COc1cc(NC(=O)CN(C)C2CCCCC2)c(C)cc1[N+](=O)[O-]
  4.9, i, 1.6, -2.4, -0.6, 0.679, 4.9
O=C(O)COCC(=O)N1CCCN(c2ccc(C(F)(F)F)cn2)CC1
  4.7, i, 0.0, 1.8, 5.0, 0.69, -2.7
CCOC(=O)N1CCN(C(=O)CN(Cc2ccc(Cl)cc2)S(=O)(=O)c2ccccc2)CC1
  -2.4, nt, -2.0, 1.1, 2.5, 0.647, 3.8
COc1ccc(C2CC(c3ccc(F)cc3)Nc3nc(N)nn32)cc1 (stereo unspecified)
  5.0, i, 10.2, -1.6, -1.2, 0.733, 1.3
COCC(C)NC(=O)C1c2ccccc2Oc2ccccc21 (stereo unspecified)
  0.1, i, -8.6, 0.8, -0.8, 0.677, 2.3
CN(C)c1cc[n+](/C(C(=S)Nc2ccc(SC(F)F)cc2)=C(/[O-])c2ccccc2)cc1
  1.0, i, nt, -3.2, 1.2, 0.695, 3.9
N#C/C(=C(/O)COc1cccc2ccccc12)c1nc2ccccc2[nH]1
  0.0, nt, -2.2, 9.1, 4.6, 0.712, -0.1
CCc1ccc(NC(=O)CC2C(=O)NCCN2C(=O)c2ccc(F)cc2)cc1 (stereo unspecified)
  3.7, i, -0.4, -3.1, 0.9, 0.692, 2.6

Profiles, looked up by structure. Values in the order: LANA-H2B inh | FGF22 binding | ALR inh | Beta2AR agonist | HNF4A DNA FP | E coli growth | UCH37 DUB inh
Entry for `O=C(NCCn1ccc2ccccc21)c1ccc(S(=O)(=O)N2CCOCC2)cc1` = -1.2 | i | -15.6 | 4.0 | 0.9 | 0.761 | 5.9
Entry for `CCOc1ccccc1C(=O)OCC(=O)NCC1CCCO1` (stereo unspecified) = 3.6 | i | 1.1 | 16.7 | 1.0 | 0.707 | 0.9

Further entries follow:
Order of values – LANA-H2B inh, FGF22 binding, ALR inh, Beta2AR agonist, HNF4A DNA FP, E coli growth, UCH37 DUB inh
CCC(=O)Nc1nnc(S(=O)(=O)N2CCCC2)s1
  -1.3, i, -2.3, 17.6, -0.7, 0.757, 2.4
CC(=O)c1cccc(NC(=O)N2CCC(c3ccc(C)cc3)C2)c1 (stereo unspecified)
  -4.0, i, -4.5, -2.7, 1.0, 0.676, 3.3
CC(C)CNc1nc(Oc2ccc(=O)[nH]n2)nc(N(C)C)n1
  -2.9, nt, 3.0, -2.8, -1.9, 0.649, -0.2
Cc1cccc(-c2nnc3n2N=C(c2ccccc2Br)CS3)c1
  2.9, nt, -11.4, -1.8, 1.1, nt, nt
Clc1ccc(-n2c(SC/C=C/c3ccccc3)nnc2-c2cccnc2)cc1
  -0.1, nt, -3.5, -9.3, 3.1, 0.711, 1.9
CCOC(=O)c1cn(CC)c2ccc(Br)cc2c1=O
  0.3, nt, 0.5, -3.6, 2.4, 0.689, 4.2
O=C(Cc1coc2ccc3ccccc3c12)N1CCCC1
  4.3, nt, -18.5, 1.7, 0.0, 0.776, 3.5
COC(=O)c1ccc2c(c1)C(NC(C)=O)CCc1cc(OC)c(OC)c(OC)c1-2 (stereo unspecified)
  nt, i, nt, 17.5, 0.1, nt, nt
O=[N+]([O-])c1ccccc1CCc1ccccc1[N+](=O)[O-]
  nt, i, nt, 7.7, -0.5, 0.639, -0.4
O=C(CSc1nccn1Cc1ccccc1)NC1CCCC1
  -4.9, i, -3.8, -9.1, 2.8, 0.715, 3.0
CC(C)Cc1cc(-c2ccco2)c(C#N)c(N)n1
  3.0, nt, -3.1, -2.9, 6.0, 0.713, -49.7
Cc1noc(/C=C/N(C)C)c1S(=O)(=O)N1CCCC(C(=O)NCc2ccco2)C1 (stereo unspecified)
  -8.7, i, 4.1, 0.4, -4.8, 0.796, 15.7
CCC(=O)Nc1ccc(S(=O)(=O)N2CCC(c3nc4ccccc4[nH]3)CC2)cc1
  1.3, i, 0.2, -12.2, 1.3, 0.667, 1.0
Cc1ccccc1C(=O)NC(=S)NC1CCS(=O)(=O)C1 (stereo unspecified)
  5.3, i, -9.8, -3.2, -1.9, 0.712, 2.5
Cc1ccc(/C=N/NC(=O)Cc2c(F)cccc2Cl)s1
  0.2, i, -3.4, 5.2, 1.6, nt, nt
CCS(=O)(=O)n1nc(-c2cccnc2)nc1NCc1ccc(F)cc1
  6.3, i, 0.4, -10.4, 2.8, 0.679, 0.2
O=C(c1ccco1)N1CCN(C(=O)c2cc(Cl)nc3ccccc23)CC1
  1.8, i, nt, -11.3, -0.9, 0.696, -0.4
CC1SC(c2ccccc2Cl)NC1=O (stereo unspecified)
  2.0, nt, 0.3, 7.0, -0.7, 0.641, 0.0
Cc1ccc(NC(=O)CCCc2c[nH]c3ccccc23)nc1
  0.7, i, 3.8, 4.1, -2.5, 0.69, 0.2
Cc1ccc(-n2c(=O)c3sccc3n(CC(=O)NCC3CCCO3)c2=O)cc1F (stereo unspecified)
  -2.7, i, nt, -8.4, 3.1, 0.675, 5.8
CC1Cc2cc(/C(O)=C3/C(=O)C(=O)N(CCN4CCOCC4)C3c3ccc(N(C)C)cc3)ccc2O1 (stereo unspecified)
  -3.1, i, 50.6, -0.4, 4.2, 0.704, 12.5
Cc1cc(NC(=O)NC(=O)c2ccccc2F)no1
  0.4, i, -13.4, -2.1, -3.9, 0.7, 0.8
CC(C(=O)NC(=O)NC1CCCCC1)N1CCN(c2ccccn2)CC1 (stereo unspecified)
  -3.5, nt, -10.3, -4.0, -2.5, 0.704, 3.4
O=C(Nc1ccccc1N1CCCCC1)c1ccc(F)cc1
  -1.1, nt, 9.3, 1.1, 2.7, 0.707, 4.8
COC(CNC(=O)c1ccc2c3c(onc13)-c1ccccc1C2=O)OC
  -0.1, i, -6.3, 48.3*, -4.1, 0.658, 20.1*
O=C(Nc1cccc(Oc2ccc3c(c2)C(=O)NC3=O)c1)c1cccs1
  4.2, i, -1.7, -11.8, 2.5, 0.716, 4.4
Cc1nn(C)cc1CNC(=O)C1(C)CC1(Cl)Cl (stereo unspecified)
  4.1, nt, -3.6, -1.3, 2.0, 0.691, 0.7
CCC1CCCCN1CCNC(=O)CCS(=O)(=O)c1ccc(Br)cc1 (stereo unspecified)
  -0.5, nt, -2.3, 2.0, -2.2, 0.658, 5.4
CCSC1=C(C#N)C(c2ccccc2Cl)CC(=O)N1 (stereo unspecified)
  3.4, nt, -3.8, -6.4, 0.3, 0.747, 1.2
COc1ccc(OC)c(/C=N/NC(=O)CC(=O)NC2CCCCC2)c1
  -1.2, i, -6.5, 5.3, -0.5, nt, nt
NNC(=O)CN1CCN(c2ncc(C(F)(F)F)cc2Cl)CC1
  -4.2, i, 16.2, -3.0, -5.4, 0.692, 0.3
COc1ccc(F)cc1C(=O)C1CCCN(Cc2c[nH]c3ccccc23)C1 (stereo unspecified)
  0.5, i, -26.7, 6.2, 2.8, 0.68, 0.2
N#Cc1cccc(C(c2nnnn2CCc2ccccc2)N2CCN(C3CCCCC3)CC2)c1 (stereo unspecified)
  3.0, i, -4.1, -0.7, 0.8, 0.669, 2.2

These rows are one share of the data; rates above refer to the full screens.
